Assay outcomes (PubChem BioAssay)
GIRK2 activ: GIRK2 channel activation. HEK293-GIRK2 thallium flux, Thallos fluorescence. P48051. calls only for hits at 25 µM. 0.05% of 63,000 active. AID 1259325;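 active means among the strongest 0.2% of first-round signals and kept after retests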;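 further: first round at about 10 µM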
Target sequence (P48051 whole entry, looked up): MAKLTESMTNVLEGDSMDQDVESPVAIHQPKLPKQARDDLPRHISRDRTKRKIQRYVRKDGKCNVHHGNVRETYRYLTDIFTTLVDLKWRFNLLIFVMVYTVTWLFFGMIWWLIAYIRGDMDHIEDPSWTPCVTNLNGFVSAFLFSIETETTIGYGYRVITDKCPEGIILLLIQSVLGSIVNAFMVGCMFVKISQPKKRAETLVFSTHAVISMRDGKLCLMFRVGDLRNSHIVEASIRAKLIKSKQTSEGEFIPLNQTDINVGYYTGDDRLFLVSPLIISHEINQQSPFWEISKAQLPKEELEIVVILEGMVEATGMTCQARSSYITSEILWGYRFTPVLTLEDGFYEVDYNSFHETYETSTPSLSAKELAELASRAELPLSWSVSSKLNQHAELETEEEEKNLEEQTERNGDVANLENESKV
Calls only; i = inactive. Not all compounds are listed; the hit share may differ from the screen's.

GIRK2 activ | smiles
i | COc1cc(OC)cc(C(=O)N(CCCn2ccnc2)c2nc3c(OC)cccc3s2)c1
i | Cc1ccc(C2C(C#N)=C(SCC(=O)Nc3ccc(F)cc3)NC3=C2C(=O)CCC3)cc1 (centres undefined)
i | COc1ccc(C)cc1NC(=O)CSc1ncnc2nc(N3CCc4ccccc4C3)sc12
i | COc1ccc(CCNC(=O)c2csc(Nc3ncccn3)n2)cc1OC
i | COc1ccc(CNC(=O)Nc2cccc(N3CCCC3=O)c2)cc1
i | CCOc1ccc(NC(=O)CSc2nccc(N3CCCC3)n2)cc1
i | CCCOc1nc2ccccc2nc1NS(=O)(=O)c1ccc(NC(C)=O)cc1
i | CCCCOc1ccc(NC(=O)Nc2ccc3c(c2)CCCN3C(=O)C2CC2)cc1
i | CCCCCCCCc1ccc(CCC(N)(CO)CO)cc1
i | COCC(=O)N1CCCc2ccc(NC(=O)C3(c4ccc(F)cc4)CC3)cc21
i | COc1cccc(/C=N\n2c(N)c(C(=O)NCC(C)C)c3nc4ccccc4nc32)c1OC
i | CSc1cccc(NC(=O)Cn2nc3ccc(SC(C)(C)C)nn3c2=O)c1
i | CCCOC(=O)c1ccc(Oc2cn[nH]c2-c2ccc(OC)cc2O)cc1
i | Cc1nn(-c2ccccc2)c2sc(C(=O)N3CCCc4ccccc43)cc12
i | Cn1cc(C2=C(c3cccc(NCC(O)CO)c3)C(=O)NC2=O)c2cc(Cl)ccc21 (centres undefined)

Quoted at random: three compounds from above
GIRK2 activ | smiles
i | CCCCCCCCc1ccc(CCC(N)(CO)CO)cc1
i | COc1cccc(/C=N\n2c(N)c(C(=O)NCC(C)C)c3nc4ccccc4nc32)c1OC
i | CCOc1ccc(NC(=O)CSc2nccc(N3CCCC3)n2)cc1

Additional results follow.
GIRK2 activ | smiles
i | Cc1ccc(-n2nnc(C(=O)NC(C)(C)CO)n2)cc1
i | CC1Oc2ccccc2OC1C(=O)Nc1ccc(-n2nnn(CC(=O)NCc3ccco3)c2=O)cc1 (centres undefined)
i | CCOC(=O)c1cc2c(c(C(=O)O)c1O)CCCC2
i | COC1(CNC(=O)c2cccn(C)c2=O)CCSC1 (centres undefined)
i | CCc1cc(=O)n(CC(=O)Nc2cccc(Cl)c2F)c(C)n1
i | O=C(Cn1cccc(-c2nc(-c3ccc(Cl)cc3)no2)c1=O)Nc1ccc2c(c1)OCO2
i | CSc1ccccc1C(=O)N(Cc1ccsc1)CC(F)(F)F
i | CC(=O)N1CCCC1c1nc(C)no1 (centres undefined)
i | Cc1ccc(OCC(=O)Nc2ccc3oc(=O)ccc3c2)cc1
i | O=C(COc1ccc(Cl)cc1Cl)N1CCN(c2ccc3nncn3n2)CC1
i | O=S(=O)(c1ccc(C(F)(F)F)cc1)N1C2CCC1COC2
i | COc1ccc(-c2coc3cc(OCc4ccc([N+](=O)[O-])cc4)ccc3c2=O)cc1
i | COc1ccc(-c2csc3c(=O)n(CC(=O)Nc4ccc(Cl)cc4)cnc23)cc1
i | COc1cccc(NC(=O)Nc2cnc(N3CCN(C)CC3)nc2)c1
i | O=C1CN(C(=O)NC(c2ccccc2)c2ccccc2)c2ccccc2N1
i | N#Cc1c(NC(=O)c2cccc(-n3cnnn3)c2)sc2c1CCCC2
i | O=C1CCSCC(C(=O)N2CCN(C(c3ccccc3)c3ccccc3)CC2)N1 (centres undefined)
i | Cc1ccc(NC(=O)Cn2c(C(=O)NCc3cccc(Cl)c3)cccc2=O)c(Cl)c1
i | Cc1nc(C)c(-c2nnc(NC(=O)c3cc(Cl)sc3Cl)o2)s1
i | CN(C)S(=O)(=O)N1CCN(C(=O)c2ccc3c(c2)OCO3)CC1
i | FC(F)(F)c1cccc(N2CCN(c3ncnc4sccc34)CC2)c1
i | COc1cccc(-c2nc(Cn3ccn4nc(-c5ccc(Cl)cc5)cc4c3=O)c(C)o2)c1OC
i | Cc1cc(=O)n2c(-c3ccc(NS(=O)(=O)Cc4ccccc4)cc3)csc2n1
i | CCOc1ccccc1C(=O)NCC1(O)CCc2ccccc2C1 (centres undefined)
i | Cc1ccc2[nH]c3c(=O)n(CC(=O)N4CCN(Cc5ccc6c(c5)OCO6)CC4)cnc3c2c1
i | O=C1CC(NC(=O)c2cc(-c3ccc(F)cc3)n[nH]2)CN1 (centres undefined)
i | COc1ccc(C)c2sc(N(CCCn3ccnc3)C(=O)Cc3ccc(F)cc3)nc12
i | CSc1ccccc1NC(=O)CN(C)c1nc2ccccc2s1
i | O=C(CCn1nc(-c2ccccc2)cc1-c1ccccc1)N/N=C\c1ccco1
i | Cc1c(Cl)cccc1S(=O)(=O)Nc1ccc(-n2nnc(C(N)=O)n2)cc1
i | COc1cc(C(=O)N/N=c2\oc3ccccc3cc2C(N)=O)cc(OC)c1OC
i | CCC(=O)Nc1sc2c(c1-c1nc3ccccc3s1)CCN(C(C)C)C2
i | Cc1sc2nc(SCC(=O)NC3CCCCC3)n(Cc3ccco3)c(=O)c2c1C
i | COc1cc2c(cc1Nc1nc(Nc3ccsc3C(N)=O)c3cc[nH]c3n1)N(C(=O)CN(C)C)CCC2
i | COc1ccc(S(=O)(=O)N2CCCc3cc(NS(=O)(=O)c4ccc(F)cc4C)ccc32)cc1
i | Cc1nc(-n2cccc2)sc1C(=O)NCCn1nc(C2CC2)n(-c2ccccc2)c1=O
i | O=C(C1c2ccccc2Oc2ccccc21)N1CCC(Oc2cnccn2)CC1
i | O=C(NCc1ccc(Cl)cc1)C1CCCN(c2nc3c(-c4ccccc4)csc3c(=O)[nH]2)C1 (centres undefined)
i | CCCn1c(=O)c2cc(F)ccc2n2c(SCC(=O)Nc3ccc(Cl)cc3)nnc12
i | CC(CCc1ccccc1)NC(=O)Cc1cc(=O)[nH]c(SCc2ccc(F)cc2)n1 (centres undefined)
i | COc1ccc(-c2noc(Cn3nc(-c4ccc(OC)c(OC)c4)ccc3=O)n2)cc1
i | CSCC(C)(O)CNC(=O)c1ccc(-c2ccccc2)cc1 (centres undefined)
i | CCOC(=O)Cc1csc(NC(=O)C2CCN(c3ccc(=O)n(C)n3)CC2)n1
i | CC1=C(C(=O)OC(C)C)C(c2ccc(O)cc2)NC(=O)N1 (centres undefined)
i | CCOC(=O)N1CCN(C(=O)C2(c3cccs3)CCCC2)CC1
i | Cc1cc(-n2cc(C(=O)N3CCC(NC(=O)CCC4CCCC4)CC3)nn2)ccc1F
i | COc1ccc(OCc2noc(CNC(=O)CCn3cnc4ccccc4c3=O)n2)cc1
i | Cc1ccc(-c2noc(-c3nn(-c4cccc(Br)c4)ccc3=O)n2)cc1C
i | O=C(O)c1ccc(Cl)c(S(=O)(=O)N2CCCC2C(=O)O)c1 (centres undefined)
i | CCn1c(=O)c2c(nc3n(-c4ccccc4O)c(C)cn23)n(C)c1=O
i | COc1cc(O)c(C(=O)c2c(C)cc(O)cc2OC)c(O)c1
i | CCOC(=O)N1CCN(C(=O)c2cnn(-c3nc(C)cc(=O)[nH]3)c2C)CC1
i | CC1(C)OCC2(CO1)CN(C(=O)CSC1CCCC1)C2
i | Cc1ccc(-c2csc3c(=O)n(CC(=O)Nc4ccccc4C)cnc23)cc1
i | O=c1c(-c2nc(-c3ccsc3)no2)cccn1Cc1ccc(OC(F)(F)F)cc1
i | CC(=O)c1ccc(NC(=O)Cn2nc(C3CCCN(S(C)(=O)=O)C3)n(C)c2=O)cc1 (centres undefined)
i | CS(=O)(=O)N1CCC(C(=O)N2CC(c3nc(-c4cccs4)no3)C2)CC1
i | COc1ccc(S(=O)(=O)N2CCCc3cc(NS(=O)(=O)c4cccc(C)c4)ccc32)cc1
i | COc1ccccc1C1(CNC(=O)c2cc(Cl)ccc2Cl)CCOCC1
i | O=C(/C=C/c1ccco1)N1CCC(Cn2ccnc2-c2ccccc2)CC1

In the list so far, these contain a cyano group:
GIRK2 activ | smiles
i | Cc1ccc(C2C(C#N)=C(SCC(=O)Nc3ccc(F)cc3)NC3=C2C(=O)CCC3)cc1 (centres undefined)
i | N#Cc1c(NC(=O)c2cccc(-n3cnnn3)c2)sc2c1CCCC2

Back to the main list, starting 7 compounds before the break.
GIRK2 activ | smiles
i | Cc1ccc(-c2csc3c(=O)n(CC(=O)Nc4ccccc4C)cnc23)cc1
i | O=c1c(-c2nc(-c3ccsc3)no2)cccn1Cc1ccc(OC(F)(F)F)cc1
i | CC(=O)c1ccc(NC(=O)Cn2nc(C3CCCN(S(C)(=O)=O)C3)n(C)c2=O)cc1 (centres undefined)
i | CS(=O)(=O)N1CCC(C(=O)N2CC(c3nc(-c4cccs4)no3)C2)CC1
i | COc1ccc(S(=O)(=O)N2CCCc3cc(NS(=O)(=O)c4cccc(C)c4)ccc32)cc1
i | COc1ccccc1C1(CNC(=O)c2cc(Cl)ccc2Cl)CCOCC1
i | O=C(/C=C/c1ccco1)N1CCC(Cn2ccnc2-c2ccccc2)CC1
i | CCS(=O)(=O)NCCn1nc(-n2cccn2)ccc1=O
i | O=C(Nc1ccc(OC(F)(F)F)cc1)c1cc(OCc2ccccc2)no1
i | COc1ccc(C(=O)Cn2nc(C3CCN(S(C)(=O)=O)CC3)n(C)c2=O)cc1
i | Cc1cc(C)c2c(CN3CCN(C)CC3)cc(=O)oc2c1
i | COc1ccc(C(=O)Oc2ccc3c(=O)c(-c4ccccc4OC)coc3c2)cc1OC
i | COc1ccc(C(=O)COc2ccc3c(c2)O/C(=C\c2cccs2)C3=O)cc1
i | O=c1c(-c2ccc(Cl)cc2)coc2c3c(ccc12)OCN(CC1CCCO1)C3 (centres undefined)
i | O=C(Nc1cccc(OC(F)F)c1)c1ccc(Cn2ccnc2)cc1
i | Cc1csc(CN2CCN(C(=O)c3ccc(S(=O)(=O)N(C)C)cc3)CC2)n1
i | COc1cc2c(cc1OC)C1(O)C(=O)c3c(O)cc(O)c(CC=C(C)C)c3OC1CO2 (centres undefined)
i | COc1ccc(Cl)cc1NC(=O)Nc1nnc(-c2ccc(Br)s2)o1
i | COc1ccc(C)cc1NC(=O)C(=O)NC(C)Cc1cccs1 (centres undefined)
i | CC(C)NC(=O)CSc1nnc(N2CCN(C(=O)c3ccccc3)CC2)s1
i | O=C(NCc1ccc2c(c1)OCO2)C1CCN(c2ncccc2S(=O)(=O)N2CCCCC2)CC1
i | COc1ccc(-c2cn[nH]c2-c2ccc(OC)cc2O)cc1
i | Cc1cc(NC(=O)CCn2ccc(=O)[nH]c2=O)sn1
i | O=C(CN1CCN(Cc2nc(-c3cccs3)cs2)CC1)NCc1ccc(F)cc1
i | COc1cccc(CNC(=O)C(=O)NCC2(O)CCc3ccccc32)c1 (centres undefined)
i | CCC(=O)N1CCCc2cc(NC(=O)c3cc(OC)c(OC)c(OC)c3)ccc21
i | COc1ccc(-n2c(C)nc3ccc(NC(=O)c4ccc(S(=O)(=O)N(C)C)cc4)cc3c2=O)cc1
i | Cc1ccc(C)c(N2CCN(C(=O)CCCn3c(=O)[nH]c4ccccc4c3=O)CC2)c1
i | O=C(COc1ccccc1F)NCC1(c2ccc(F)cc2)CC1
i | COc1ccc2nc(-c3ccc(C)c(NC(=O)NCc4ccccc4)c3)cn2n1
i | O=C(Nc1cnc(Oc2ccccc2)nc1)Nc1ccccc1Cl
i | COc1ccc(-c2cc3c(SCC(=O)Nc4ccc(OC)c(OC)c4)nccn3n2)cc1
i | CN(C)c1ccc(-c2oc3ccccc3c(=O)c2O)cc1
i | C=Cc1ccc(CSc2nccn(-c3ccc(C)cc3)c2=O)cc1
i | COc1ccc(N(C)S(=O)(=O)c2ccsc2-c2nc(-c3ccc(C)cc3)no2)cc1
i | COc1ccc(-c2cn3c(C(=O)N4CCN(Cc5ccccc5)CC4)csc3n2)cc1
i | CCCn1c(C(=O)N2CCN(CC)CC2)cc2c(=O)n(C)c(=O)n(C)c21
i | CN1CCN(NC(=O)C2COCC(=O)N2Cc2ccccc2)CC1 (centres undefined)
i | COc1ccc(S(=O)(=O)NCCNc2ccc(Nc3cccnc3)nn2)cc1C
i | O=C(Nc1ccc(F)cc1)N1CCC(CNC(=O)C2(c3ccc(Cl)cc3)CCCC2)CC1
i | Cc1cccc2sc(OC3CCN(C(=O)c4ccc(Br)o4)CC3)nc12
i | Cn1c(=O)[nH]c(=O)c2c1nc(N1CCN(CC(N)=O)CC1)n2Cc1ccc(F)cc1
i | COc1ccccc1CNC(=O)C(=O)Nc1cccc(Cl)c1C
i | Cc1c(Cl)cccc1S(=O)(=O)Nc1ccc(CC(=O)NCc2cccs2)cc1
i | CCOc1ccc2nc(N(CCCN3CCOCC3)C(=O)c3ccno3)sc2c1
i | COCCn1c(SCc2nc(-c3ccc(Cl)cc3)no2)nc2cc3c(cc2c1=O)OCO3
i | O=C(O)CCc1cccc(OCc2ccccc2)c1
i | COc1ccc(CCC(=O)NCCc2nc(C)cc(C(F)(F)F)n2)cc1
i | O=C(Nc1cccs1)N1CCN(Cc2csc(-c3ccccc3)n2)CC1
i | CCOc1ccc(NC(=O)c2ccc(Oc3nccnc3N3CCOCC3)cc2)cc1
i | Cn1c(=O)c2cc(C(=O)NCCCN3CCCC3=O)n(Cc3ccccc3)c2n(C)c1=O
i | O=c1[nH]c2nc(NCCCn3cccn3)ncc2c(=O)n1-c1ccccc1
i | CCN(CC)C(=O)Oc1ccc2c(c1)O/C(=C\c1sccc1C)C2=O
i | O=C(NCC#CCN1CCCC1)NCCc1ccccc1
i | CC(C)NC(=O)CCn1c(=O)c2ccccc2n2c(=O)n(CC#N)nc12
i | COc1ccc(NC(=O)CCSc2nnc3scc(-c4ccccc4)n23)cc1
i | Cn1c(=O)c2c(nc(NCc3ccco3)n2Cc2ccc(Cl)cc2)n(C)c1=O
i | CC(C)S(=O)(=O)c1ccc(CC(=O)Nc2ccc(CC(=O)N3CCOCC3)cc2)cc1
i | COc1ccc(Br)c(C(=O)NCC2CCN(C(=O)c3ccoc3)CC2)c1
i | CCOC(=O)CCC(=O)N1CCC(c2nnc(C3CC3)s2)CC1
i | COc1ccc2c(=O)c3c(oc2c1)C(=O)N(CCN(C)C)C3c1cccc(OC(C)C)c1 (centres undefined)
i | COc1ccc(S(=O)(=O)Cc2ccc(-c3nc(-c4cccc(OC)c4)no3)o2)cc1
